VACV mCherry inh: qHTS for Stage-Specific Inhibitors of Vaccinia Orthopoxvirus: mCherry Reporter Primary qHTS | Vaccinia virus mCherry reporter infection, fluorescence; about a quarter of the inactives have no number | Potency, µM (top dose mostly 36.5 µM), for inactives: at the highest dose activity change, negative = inhibition, usual class: inhibitors | 310,000 tested, 0.63% active | AID 720579, 2013; active = well fitted inhibition curve with a large enough effect; inconclusive = small, poorly fitted or top-dose-only effect; inactive = no such curve, though single readings can be large or run the other way; tested in A549 cells; also: nearly all actives have a fitted effect of over 35% in size; inactives centre near -10
Vaccinia Venus: qHTS for Stage-Specific Inhibitors of Vaccinia Orthopoxvirus: Venus Reporter Primary qHTS. Vaccinia virus Venus reporter expression, fluorescence. Potency, µM (highest dose often 36.5 µM), inactives show top-dose activity change, negative = inhibition, most hits filed as inhibitors. 330,000 tested, 0.46% active; active means well fitted inhibition curve with a large enough effect; inconclusive means small, poorly fitted or top-dose-only effect; inactive means no such curve, though single readings can be large or run the other way; tested in A549 cells; also: nearly all actives have a fitted effect of over 30% in size; inactives centre near -10
* marks the source's active call; other numbers are inactive results; i = inactive; ? = inconclusive; · = not tested or not shown; [ ] = another dose, or the depositor's remark. % is scaled to controls: 0 for no effect and ±100 for the full control effect; potency is read from the fitted curve at half-maximal effect.

compound,Vaccinia Venus,VACV mCherry inh
CN(C)c1ccc(/C=C/C(=O)c2ccc(O)cc2)cc1,1.4%,-24.9%
COc1ccccc1Nc1ncnc2c1nc1n2CCCCC1,-4.9%,1.7%
CC1CCc2cc(F)ccc2N1S(=O)(=O)c1ccc(F)cc1 (stereo not given),-10.7%,-3.4%
Cn1cc(C(=O)N/N=C/C=C/c2ccccc2)ccc1=O,-6.0%,-6.7%
CCN1CCN(c2ccc(S(=O)(=O)N3CCCC3)cn2)CC1,-10.4%,i
CN(C(=O)c1cccnc1)c1nnc(-c2ccccn2)s1,-5.2%,-18.0%
CCC(=O)NCCCCCCCCCNC(=O)CC,-4.4%,-22.9%
COc1ccccc1-c1cc(C(=O)NCCN2CCOCC2)no1,-15.8%,-20.3%
CCN1C(=O)N[C@@H](c2ccccc2)C(C(=O)OC)=C1C,-10.2%,i
COCC(=O)N(C)c1nnc(-c2ccccn2)s1,2.6%,-1.9%
CCOc1cc(C(=O)NC)cc(Br)c1OC,-9.6%,-11.8%
CCN(C(=O)C1CCC(CNS(=O)(=O)c2cccc3nsnc23)CC1)c1ccc(C)c(C)c1 (stereo not given),-11.3%,-24.8%
CCNC(=O)c1ccc(CSc2nc3ccccc3s2)cc1,-10.3%,i
O=C(Nc1ccc(C(=O)O)cc1)/C(=C\c1ccco1)NC(=O)c1ccccc1Cl,-2.1%,-11.5%
CCC1CCC(C(=O)NC(C(=O)NCCN(CC(C)C)CC(C)C)C(C)C)CC1 (stereo not given),-3.1%,-10.8%

(further entries)
compound,Vaccinia Venus,VACV mCherry inh
O=C(Cn1nc(C(F)(F)F)c2c1CCC2)Nc1ccccc1C(F)(F)F,-0.2%,1.2%
CC(C)CNC(=O)c1cccc2c(-c3cccnc3)coc12,-14.6%,9.3%
COC(=O)c1ccc(NC(=O)CSc2nc3ncccc3[nH]2)cc1,-15.7%,-0.5%
COC(=O)C1=C(C)N(C)C(=S)N(C)C1c1ccc(OC)cc1 (stereo not given),5.3%,-13.7%
CC(=O)c1c(COC(=O)c2ccc(F)cc2)nc2ccccc2[n+]1[O-],1.7%,-7.9%
O=C(NCCc1ccc(Cl)cc1)c1ccc(Cn2c(=O)c3cccn3c3cccnc32)cc1,-27.5%,-26.0%
CC1=C(C(=O)N2CCOCC2)CC(CC(=O)NCCCCc2ccccc2)C(=O)N1CCC1=CCCCC1 (stereo not given),-12.5%,-24.1%
CCOc1ccc(NC(=S)N(C)C)cc1,-3.7%,i
COc1ccc(-n2c(SCc3nc(-c4ccc(C)cc4)no3)nnc2-c2ccncc2)cc1,9.7%,0.3%
CCOC(=O)C1(Cc2cccc(F)c2)CCN(C(=O)c2cnc(C)cn2)CC1,-2.3%,i
Cc1ncc([N+](=O)[O-])n1CC(=O)Nc1ccc(F)cc1,-5.1%,-8.6%
O=C1CSC(=NC2CCCCC2)N1,3.9%,·
C#C[C@]1(O)CC[C@H]2[C@@H]3CCc4cc(OC5CCCC5)ccc4[C@H]3CC[C@@]21C,-26.1%,-9.2%
C[C@H](CO)N1C[C@H](C)[C@@H](CN(C)S(=O)(=O)c2cn(C)cn2)OCc2cnnn2CCCC1=O,-4.8%,i
O=C(c1ccc(Cl)cc1)N1CCC(N2CCC(C(=O)N3CCOCC3)CC2)CC1,1.1%,-15.8%

Continued, overlapping the part above by 2 compounds.
compound,Vaccinia Venus,VACV mCherry inh
C[C@H](CO)N1C[C@H](C)[C@@H](CN(C)S(=O)(=O)c2cn(C)cn2)OCc2cnnn2CCCC1=O,-4.8%,i
O=C(c1ccc(Cl)cc1)N1CCC(N2CCC(C(=O)N3CCOCC3)CC2)CC1,1.1%,-15.8%
O=C(CCN1C(=O)COc2ccccc21)NCc1cccs1,-4.1%,i
COc1cccc(N(CC(=O)O)S(=O)(=O)c2ccccc2)c1,2.3%,-9.7%
O=C(c1cccnc1)C1CCCN(Cc2ccc3c(c2)CN(C(=O)c2cccs2)CCO3)C1 (stereo not given),-17.0%,-11.3%
O=C(NC1CCCC1)C1CC(O)CN1C(=O)Nc1ccccc1 (stereo not given),-9.7%,-12.5%
C[n+]1c2n(c3ccccc31)N=C(c1ccc(-c3ccccc3)cc1)CS2,?,-24.4%
CN(C)S(=O)(=O)c1ccc(N2CCCC2)c(C(=O)N2CCN(S(=O)(=O)c3cccc(F)c3)CC2)c1,10.5%,-2.7%
C[n+]1c2ccccc2nc2ccc(NCCO)cc21,390.8%[activator],261.5%[activator]
Cc1cc(NC(=O)C2CCCCC2C(=O)O)no1 (stereo not given),-12.7%,i
CCOc1ccc(CC(=O)NCC(c2cccs2)S(=O)(=O)c2ccc(F)c(C)c2)cc1 (stereo not given),0.8%,-10.9%
COc1cc(OC)c(NC(=O)c2ccc(F)cc2)cc1Cl,-18.3%,-9.1%
CCc1ccc(CNC(=O)C2CCN(c3nc4ccccc4nc3C(F)(F)F)CC2)cc1,-13.3%[7.34 µM],-5.1%[7.34 µM]
CSc1ncccc1C(=O)OCC(=O)NC12CC3CC(CC(C3)C1)C2,-8.5%,-24.1%
C/C(=N\NC(=O)C1CC1)c1ccc(N2CCOCC2)cc1,-2.2%,-6.7%
Cn1c(=O)c2c(nc(CN3CCN(c4ccccc4F)CC3)n2Cc2ccc(F)cc2)n(C)c1=O,-17.5%,-15.6%
CCOC(=O)C1=C(C)C(c2cccc(Oc3ccccc3)c2)NC(=S)N1 (stereo not given),-9.9%,-11.2%

Next part
compound,Vaccinia Venus,VACV mCherry inh
Cc1ccsc1CCN1C(=O)N(c2ccccc2)C(=O)C1CC(=O)Nc1ccc(Cl)cc1 (stereo not given),-17.1%,-8.5%
O=C(NCCCN1CCOCC1)/C(=C/c1ccc(F)cc1)NC(=O)c1ccccc1,0.4%,-3.3%
CN(C)c1nccc(NCc2ccccc2)c1C#N,-13.5%,i
CCOC(=O)C1CCCN(C(=O)c2ccc(NC(=O)CC3SC(N4CCCC4)=NC3=O)cc2)C1 (stereo not given),-3.9%,-19.3%
COc1ccc(CNC(=O)Cn2c(=O)nc(-c3ccccc3)c3cc(Cl)ccc32)cc1OC,-22.4%,-6.2%
Nc1ccccc1C#CCCCCO,-16.0%,-7.5%
CCOC(=O)c1c(NC(=O)C2CCCCC2C(=O)O)sc2c1CCCCC2 (stereo not given),-0.1%,1.9%
Cc1cscn1,-3.9%,i
CCOC(=O)c1cnc(N2CCN(c3ccc(OC)cc3)CC2)c2ccccc12,-6.0%[7.34 µM],-21.4%[7.34 µM]
CNC(=O)C1CCC(Cn2c(=O)c3sccc3n(CC(=O)NCc3cccc(OC)c3)c2=O)CC1 (stereo not given),-9.8%,-10.0%
Cc1c(C(=O)Nc2ccc(F)cc2)c2ccccn2c1CCc1ccncc1,-13.4%,-17.2%
CC1CC(C)CN(Cc2nc(N)nc(Nc3ccccc3)n2)C1 (stereo not given),-20.7%,·
Cc1ccc(NC(=O)CN2C(=O)CCSc3ccccc32)c(C)c1,2.9%,-4.4%
O=C(O)c1ccccc1-n1c2ccccc2c2ccccc21,-5.2%,i
COc1ccccc1N1C(=O)C(Cl)=C(N2CCCC2)C1=O,-13.9%,-12.8%

(more compounds)
compound,Vaccinia Venus,VACV mCherry inh
O=C(Cc1ccccc1)NNC(=S)NC(=O)c1cccnc1,-10.5%,i
CCN(c1ccccc1)S(=O)(=O)c1ccc(Cl)c(NC(=O)CN(C)C2CCN(C)CC2)c1,?,-24.2%
CCCC(=O)Nc1ccc2c(c1)nc(CCNC(=O)c1ccccc1)n2C,-6.3%,i
O=c1c2sc3ccccc3c2[nH]c(=S)n1CCN1CCOCC1,2.1%,-4.2%
CCCCNCCCOc1cccc(Cl)c1Cl,-21.2%,-21.8%
CCCn1ncc(CN2CCC(Cc3cccc(F)c3)(C(=O)OCC)CC2)c1C,-12.4%,-11.8%
O=C(CSc1nnc(Cn2c(=O)sc3ccccc32)n1-c1ccccc1)NCC1CCCO1 (stereo not given),9.9%,1.7%
CCCS(=O)(=O)NC(=O)C1(C)CCCN(C(=O)c2oc3ccccc3c2C)C1 (stereo not given),0.2%,7.4%
Cc1ccc(CNC(=O)C2CCC(CNS(=O)(=O)c3cccs3)CC2)cc1 (stereo not given),-6.4%,-20.9%
O=C(CCc1ccc(Oc2cc([N+](=O)[O-])cc([N+](=O)[O-])c2)cc1)Nc1cccc(Cl)c1,?,?
COc1cccc(-c2csc(NC3OC(=O)c4c3ccc(OC)c4OC)n2)c1 (stereo not given),-15.8%,?
COc1ccc(NC(=O)C(c2ccc(Cl)cc2)C(C)C)cn1 (stereo not given),9.3%,-4.7%
CCOC(=O)N1CCc2c(sc3c2c(=O)n(-c2ccc(F)cc2)c(=O)n3CC(=O)c2ccc(Cl)cc2)C1,-7.4%,-6.7%
CCOc1cccc(C(=O)Nc2ccc(S(=O)(=O)Nc3cc(C)on3)cc2)c1,3.4%,2.3%
CCOC(=O)NC(=O)CSc1nc2ccc([N+](=O)[O-])cc2[nH]1,-2.8%,16.7%

New compounds follow:
compound,Vaccinia Venus,VACV mCherry inh
COc1ccccc1N1CCN(C(=O)c2oc3ccc(F)cc3c2C)CC1,?,?
COc1ccc(-n2nc([N+](=O)[O-])c(=NCCc3ccc(Cl)cc3)n2O)cc1,-25.9%,-13.8%
CCc1c(C)n([O-])c2c([n+]1=O)CCCCC2,2.4%,·
CN1C(=O)N(C)C2C1N(CN1CCCCC1)C(=O)N2CN1CCCCC1 (stereo not given),-10.8%,·
Cc1ccc(SCCC(=O)NCC2CCCO2)cc1 (stereo not given),-20.0%,i
CCOC(=O)c1c(-c2ccccc2)csc1NC(=O)c1cc(-c2ccc(Cl)cc2)on1,5.5%,-3.0%
O=C(Cc1ccccc1)Oc1ccccc1N1C(=O)CCC1=O,-1.1%,-2.2%
O=C1CCCN1CC(=O)N1CCCC(Nc2cccc(F)c2)C1 (stereo not given),-0.4%,-13.8%
Cc1cc2nn(-c3ccccc3)nc2cc1NC(=O)c1cccc2c(Cl)cccc12,-16.9%,-15.4%
Cc1cc(N2CCC(C)CC2)n2ncc(-c3ccccc3)c2n1,-25.2%,·
CN(c1ccccc1)S(=O)(=O)c1cccc(NC(=O)CCNC(=O)c2ccc(Cl)cc2)c1,?,-18.2%
CC1=NN(c2nc(-c3ccc(C)cc3)cs2)C(=O)C1N=Nc1ccc(C(N)=O)cc1 (stereo not given),-1.0%,?
CC(C)Nc1nc(-c2ccncc2)nc(-c2ccc(Cl)cc2)c1C#N,-7.0%,-1.3%
CCOC(=O)C1(C)C=C(Nc2cccc(C(=O)O)c2)C(=O)N1c1cccc(C(=O)O)c1 (stereo not given),-0.1%,-10.3%
COc1ccc(N2CCC(CNC(=O)Nc3cccc(OC)c3)C2)cc1 (stereo not given),-7.6%,-18.5%

(continued)
compound,Vaccinia Venus,VACV mCherry inh
CC#CC[N+](C)(C)CC(=O)c1ccccc1,-5.5%,-3.4%
CCN(c1ccccc1)C(CNS(=O)(=O)c1ccccc1)c1ccccc1 (stereo not given),-12.7%,-13.2%
Cc1n[nH]c(=O)nc1NCC1CCCO1 (stereo not given),-9.1%,-20.7%
COCCN(C(=O)CSc1ccc2c(c1)OCCO2)c1c(N)n(CC(C)C)c(=O)[nH]c1=O,-2.4%,-15.0%
Cc1cccc(C(=O)OCC(=O)Nc2sccc2C(N)=O)c1C,-2.5%,i
COC(=O)c1c(C)[nH]c(C(=O)C(C)Sc2nnc(-c3cc(OC)c(OC)c(OC)c3)o2)c1C (stereo not given),-3.0%,i
Cc1ccc(-n2c(=O)c3c(cnn3C)n(Cc3ccc(Cl)cc3)c2=O)cc1,-12.6%,-6.6%
CC(C)C[C@H]1CNC(=S)N1C[C@H]1CCCN1C[C@H](CC(C)C)N1C[C@H](Cc2ccccc2)N(CCc2ccccc2)C1=S,-18.4%,-10.2%
CC(C)C(C(=O)NCc1ccccc1)N(C)Cc1ccc(Cl)c(Cl)c1 (stereo not given),-6.9%,?
O=C(CNC(=O)Cn1ccc2ccccc2c1=O)NCCCN1CCN(c2cccc(Cl)c2)CC1,-18.0%,-24.0%
CN1C=CC(=CC=C2C=CC(=O)C=C2)C=C1,2.9%,i
COc1cc(C(CC(=O)NCc2ccc(F)cc2)N2Cc3ccccc3C2=O)cc(OC)c1OC (stereo not given),-6.4%,-14.1%
C[C@@H]1CCCCO[C@@H](CN(C)C(=O)Nc2ccc3c(c2)OCO3)[C@@H](C)CN([C@H](C)CO)C(=O)c2cc(N(C)C)ccc2O1,-8.6%,-13.0%
O=Cc1c[nH]c2cccc(OCc3ccccc3)c12,?,-28.7%
CC(NC(=O)CCCCCN1C(=O)c2ccccc2C1=O)c1ccc2c(c1)CCCC2 (stereo not given),-4.7%,-9.4%

(continued)
compound,Vaccinia Venus,VACV mCherry inh
CN(CC(O)COc1ccccc1F)C1CCCCC1 (stereo not given),-13.3%,-2.0%
CCCN1C(=O)c2[nH]nc(-c3ccccc3O)c2C1c1ccc(OCc2ccccc2)c(OCC)c1 (stereo not given),-27.9%,-23.5%
N#Cc1c(NC(=O)C2CC(c3ccccc3Cl)=NO2)sc2c1CCC2 (stereo not given),-2.2%,-14.4%
Cc1cccc(NC(=S)NCCN2CCOCC2)c1,-7.3%,i
COc1ccc(Nc2nc(Nc3ccc(OC)cc3OC)nc(N3CCOCC3)n2)c(OC)c1,-15.4%[7.34 µM],-9.5%[7.34 µM]

Screens from PubChem BioAssay.
